miR-21 FLuc: miR-21 reporter, rising signal | HeLa miR-21 FLuc reporter, luciferase, 48 h | Potency, µM (highest dose often 38.3 µM), without a hit: at the highest dose reporter change, positive = more light | 340,000 tested, under 10 active; active = well fitted rising curve with a large enough effect; inconclusive = small, poorly fitted or top-dose-only effect; inactive = no such curve, though single readings can be large or run the other way;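 note: % of control where 0% means no effect; miR-21 action dims this reporter so a rising signal means less miR-21 action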
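HeLa cells endogenously expressing miR-21, stably carrying CMV-driven firefly luciferase with a downstream miR-21 binding site, 2000 cells/well. Titrations up to approximately 40 uM, 48 hours; luciferase luminescence read.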
An asterisk follows results filed as active; ? = inconclusive. This is a subset; rates above refer to the full screens.

SMILES | miR-21 FLuc
O=C(OCc1ccco1)c1ccc2c(c1)N(Cc1ccc([N+](=O)[O-])cc1)C(=O)c1ccccc1S2 | -7%
COc1ccc(N2CCN(S(=O)(=O)c3ccc4oc(=O)c5ncn(C)c5c4c3)CC2)cc1 | -1%
CC(C)(C)CC(=O)NCC(c1ccc2c(c1)OCO2)N1CCN(c2ccccc2)CC1 (stereo not drawn) | 5%
CCOc1ccc(NC(=O)c2cnn(-c3ccc(C)c(C)c3)c2C2CCN(C(=O)OC(C)(C)C)CC2)cc1 | -1%
Cc1cccc(Cn2c(=O)n(Cc3ccc(C(=O)NC4CCN(Cc5ccccc5)CC4)cc3)c(=O)c3ccccc32)c1 | -1%
COC(=O)c1c(NC(=O)c2cc3nc(-c4ccc(Br)cc4)cc(C(F)(F)F)n3n2)sc2c1CCCC2 | -2%
Cc1cc(C)n2nc(CNC(=O)c3cccc(N(C)C)c3)nc2n1 | -50%
CCOc1ccc(NC(=O)c2c(NCc3cccnc3)sc3c2CCCC3)cc1 | -22%
COc1cccc(NC(=O)CN2C(=O)c3ccccc3Sc3ncccc32)c1 | -11%
CCn1c2ccccc2c2nnc(N3CCN(c4cc(C)ccc4C)CC3)nc21 | 21%
COc1ccccc1C(=O)N(Cc1nc(-c2cccc(C)c2)no1)C(C)C | 11%
Cc1ccc2c(=O)cc(C(=O)Nc3c(C(=O)c4ccc(F)cc4)oc4ccccc34)oc2c1C | 3%
Cc1c(NC(=O)C(C)(C)Oc2ccc(Cl)cc2)cccc1-c1nc2ccccc2o1 | ?
COc1ccc(/C=C/c2nc(C#N)c(NCCc3ccccc3)o2)cc1OC | 0%
CNC(=O)c1ccc(Nc2nnc(-c3ccc(C)c(S(=O)(=O)N4CCOCC4)c3)c3ccccc23)cc1 | 3%
O=C(CCCn1c(=O)c2cccn2c2ccccc21)Nc1cccc(Cl)c1 | -76%
CCOC(=O)c1ccc(NC(=O)C(C)Sc2nc(=O)cc(N)n2CCc2ccccc2)cc1 (stereo not drawn) | 7%
Cc1cc2nc(NC(=O)c3ccc(S(=O)(=O)N4CCOCC4)cc3)sc2cc1C | -3%
Cc1ccc(CN2CCC(CNC(=O)Nc3c(C)cccc3C)C2)cc1 (stereo not drawn) | 8%
Cc1ccc(NC(=O)CSCc2cnn(-c3ccccc3)c2-n2cccc2)c(Cl)c1 | 8%
Cc1ccc(C)c(N2CCN(CCCNC(=O)c3cnn(-c4ccccc4Cl)c3C3CCN(C(=O)OC(C)(C)C)CC3)CC2)c1 | ?
COc1ccccc1NC(=O)CSc1ncc2c(n1)-c1cc(Cl)ccc1N(Cc1ccccc1)S2(=O)=O | 0%
COc1ccc(NC(=O)c2cc(S(=O)(=O)N3CCCCC3)cn2C)cc1Cl | -11%
COc1ccc(CCN2C(=O)c3[nH]nc(-c4ccccc4O)c3C2c2ccc(OC)c(OC)c2)cc1 (stereo not drawn) | 26%

Structures listed so far that contain an aryl thioether with sulfur outside any ring, in the order listed:
SMILES | miR-21 FLuc
CCOC(=O)c1ccc(NC(=O)C(C)Sc2nc(=O)cc(N)n2CCc2ccccc2)cc1 (stereo not drawn) | 7%
COc1ccccc1NC(=O)CSc1ncc2c(n1)-c1cc(Cl)ccc1N(Cc1ccccc1)S2(=O)=O | 0%

(further entries)
SMILES | miR-21 FLuc
COCCNC(=O)Cn1nc(C)c2c(C)n(-c3ccc(C)cc3)nc2c1=O | -5%
O=C(Nc1ccc2oc(-c3cccnc3)nc2c1)c1ccccc1F | -41%
Cc1ccc2nc(-c3ccccn3)c(Nc3ccc(F)cc3)n2c1 | 18%
Cc1ccc(-c2nnc(Nc3ccccc3O)c3ccccc23)cc1 | -12%
CCCN(C(=O)c1cc2c(Cl)nc3ccccc3c2s1)c1cccc(C)c1 | -16%
O=C(OCc1cc(=O)n2nc(C3CCCCC3)sc2n1)c1ccccc1Cl | -13%
Cc1ccc(OCC(=O)OCc2cc(=O)n3nc(C4CCCCC4)sc3n2)cc1C | 0%
CC1CCN(CCCNC(=O)c2cn(C)c3ccc(S(=O)(=O)N(C)C4CCCCC4)cc3c2=O)CC1 | -11%
Cc1cccc(NC(=O)C2CCCN2S(=O)(=O)c2cccc3nsnc23)c1C (stereo not drawn) | -3%
C=Cc1ccc(CN2C(=O)N(c3cccc(Cl)c3)S(=O)(=O)c3ccccc32)cc1 | 8%
Cc1ccc(C)c(N2CCN(Cc3csc(C)c3C)CC2)c1 | 6%
O=c1c2ccccc2n(Cc2ccccc2F)c(=O)n1-c1cccc(F)c1 | -6%

As entered above:
COCCNC(=O)Cn1nc(C)c2c(C)n(-c3ccc(C)cc3)nc2c1=O in miR-21 FLuc: -5%
O=C(Nc1ccc2oc(-c3cccnc3)nc2c1)c1ccccc1F in miR-21 FLuc: -41%
C=Cc1ccc(CN2C(=O)N(c3cccc(Cl)c3)S(=O)(=O)c3ccccc32)cc1 in miR-21 FLuc: 8%

Next section.
SMILES | miR-21 FLuc
COc1ccc(C2=NC(c3ccncc3)=Nc3ccc(OC)cc3N2)cc1 | 0%
CCCCCC(=O)N1c2ccccc2C(C)(c2ccccc2)CC1(C)C (stereo not drawn) | -1%
COc1ccc2c(CNCc3ccco3)c(C(=O)O)n(Cc3cccc(F)c3)c2c1 | -8%
CC(C)CCNC(=O)c1c[nH]c2ccc(S(=O)(=O)Nc3cccc(C(F)(F)F)c3)cc2c1=O | -2%
Cc1cc(C)c(S(=O)(=O)N2CCC(N3CCN(Cc4ccccc4)C(=O)C3=O)CC2)c(C)c1 | 3%
Cc1c(C(=O)N(C)C)sc2c1c(=O)n(-c1ccccc1C(F)(F)F)c(=O)n2Cc1cccc(F)c1 | 8%
Cc1ccc(S(=O)(=O)c2nc(-c3ccco3)oc2SCc2ccccc2Cl)cc1 | 9%
Cc1ccc(S(=O)(=O)N2CCC(n3c(C)nc4cccnc43)CC2)c(C)c1 | 28%
O=C(CN1C(=O)COc2ccc(S(=O)(=O)N3CCCCCC3)cc21)N1CCN(c2cccc(C(F)(F)F)c2)CC1 | 1%
COc1ccc(CNC(=O)Cc2c(C)c3c(cc(C)c4c(C)coc43)oc2=O)cc1OC | 6%
CC(=O)c1ccc(NC(=O)C2CCN(S(=O)(=O)c3ccc4c(c3)CCCN4C(=O)C3CCC3)CC2)cc1 | -1%
Cc1ccc(NC(=O)c2nc(S(C)(=O)=O)ncc2N(Cc2ccccc2)Cc2ccco2)c(C)c1 | -1%
COc1ccc(CN(Cc2ccco2)C(=O)COc2ccccc2Cl)cc1 | 3%
O=C(Nc1sc2c(c1C(=O)NCc1ccccc1)CCCC2)c1cc(=O)c2cc(Cl)ccc2o1 | -1%
CCc1ccccc1Nc1cc(C(=O)NCCc2ccccc2)c2ccccc2n1 | 21%
CCOc1cccc(C(=O)Nc2ccc3oc(-c4ccc(C(C)(C)C)cc4)nc3c2)c1 | -1%
O=S(=O)(c1ccccc1)c1nnn2c1nc(NCc1ccccc1)c1cc(Cl)ccc12 | -2%
COC(=O)c1scc(-c2ccccc2)c1S(=O)(=O)Nc1cccc(C)c1C | 0%
CCC(C)NC(=O)Cn1c(=O)n(-c2ccc(C)c(C)c2)c(=O)c2c3c(sc21)CCCCC3 (stereo not drawn) | 1%
COc1ccc(-n2nc(C(=O)Nc3cccc(Cl)c3)c3c4ccccc4n(C)c3c2=O)cc1Cl | -2%
Cc1cccc(OCC(=O)Nc2ccc(S(=O)(=O)N(Cc3ccccc3)c3ccccc3)cc2)c1 | -1%
Cc1ccc(NC(=O)c2c(NC(=O)c3ccccc3)sc3c2CCC3)cc1 | 1%
CCN1CCOC(=O)C1CC(=O)Nc1ccc(Br)cc1 (stereo not drawn) | -34%
CC1CCN(S(=O)(=O)c2ccc3c(c2)N(CC(=O)NCc2ccccc2)C(=O)CO3)CC1 | -5%

Overlap with the part before: 4 compounds, followed by the next part.
SMILES | miR-21 FLuc
Cc1cccc(OCC(=O)Nc2ccc(S(=O)(=O)N(Cc3ccccc3)c3ccccc3)cc2)c1 | -1%
Cc1ccc(NC(=O)c2c(NC(=O)c3ccccc3)sc3c2CCC3)cc1 | 1%
CCN1CCOC(=O)C1CC(=O)Nc1ccc(Br)cc1 (stereo not drawn) | -34%
CC1CCN(S(=O)(=O)c2ccc3c(c2)N(CC(=O)NCc2ccccc2)C(=O)CO3)CC1 | -5%
COc1ccccc1CNC(=O)CN1C(=O)COc2ccc(S(=O)(=O)N3CCC(C)CC3)cc21 | -4%
CCc1nc2ccc(C(=O)NCCc3ccc(OC)cc3OC)cc2nc1CC | 8%
COc1ccccc1CCNC(=O)Cc1c(C)c2cc(Cl)c(O)cc2oc1=O | -15%
CCC(=O)C1=C(c2ccc(F)cc2)N(C(=O)CC)n2cnnc2S1 | -5%
Cc1ccc2c(c1)C(=O)OC(C(=O)Nc1ncc(Cc3ccc(C(C)C)cc3)s1)C2 (stereo not drawn) | 1%
CCOc1ccc(C2c3c(-c4ccccc4O)n[nH]c3C(=O)N2Cc2cccnc2)cc1OC (stereo not drawn) | -12%
CCC1CCCCN1C(=O)CSc1nc(-c2ccc(OC)c(OC)c2)cc(C(F)(F)F)n1 (stereo not drawn) | 18%
CNc1c(NC(=O)c2ccc(OC)c(OC)c2)c(=O)oc2ccccc12 | -14%
CC(=O)c1ccc(NC(=O)c2ccc3c(c2)nnn3C2CCCC2)cc1 | -3%
CCCN(C(=O)Cn1nc(Cc2cccnc2)c2ccccc2c1=O)c1ccc(C(C)C)cc1 | -6%
COc1ccc(OC)c(-c2nnc3n(CCc4ccccc4)c(=O)c4ccccc4n23)c1 | 25%
Cc1cc2nc(-c3cccc(NC(=O)C(C)C)c3C)oc2cc1C | 9%
Cc1ncc(CO)c2c1Oc1nc(-c3ccccc3)nc(SCC(=O)N(C)c3ccccc3)c1C2 | 17%
O=C(Cn1cc(S(=O)(=O)N2CCCC2)c(S(=O)(=O)N2CCCC2)c1)Nc1cccc(F)c1 | -6%
CCC(=O)Nc1ccccc1-c1nc2ccccc2n(CC(=O)Nc2ccc(C)c(C)c2)c1=O | -4%
Cc1cc(C)c(S(=O)(=O)N2CCN(Cc3nc4ccc(C)cc4o3)CC2)c(C)c1 | 13%
CC(CNC(=O)CCCn1c(=O)c2cccn2c2ccc(F)cc21)c1ccccc1 (stereo not drawn) | 0%
COc1cc(-c2cc(OC)c3c(C)oc(C)c3c(=O)c2)ccc1OC(=O)c1ccccc1C | 15%
Cc1ccc2nc(NCc3ccccc3)c3nnnn3c2c1 | -8%
COc1cc(OC)c(NC(=O)c2c(C)oc3ncn(C)c(=O)c23)cc1Cl | -6%
O=C(Cn1ncc2c3ccccc3n(Cc3cccc(Cl)c3)c2c1=O)N1CCCCCC1 | 12%
CCOC(=O)c1cccc(NC(=O)N2CCC(CN3CCc4ccccc4C3)CC2)c1 | 0%
CC1CCCCN1S(=O)(=O)c1cc2c(=O)nc3ccccn3c2cc1Cl (stereo not drawn) | -3%
CC1=C(C(=O)N2CCN(c3ccc(Cl)cc3)CC2)C2(CCC(C)CC2)OC1=O (stereo not drawn) | -1%
Cn1c(=O)n(C)c2cc(N3CCCCC3)c(NC(=O)Nc3ccc(Br)cc3)cc21 | 1%
CC(C)NC(=O)N1[C@H](c2cccs2)[C@@H](C)C(=O)[C@@H](C)[C@@H]1c1cccs1 | -6%
CN(C)c1ccc(CNC(=O)C2CCN(C(=O)c3ccc(-n4ccc5ccccc54)s3)CC2)cc1 | 0%
Cc1cccc(CSc2nc3cccnc3n2Cc2ccc(C(=O)NCc3ccco3)cc2)c1 | -8%
O=C(NCc1cccs1)c1ccc(CSc2nc3ccncc3n2Cc2ccccc2F)cc1 | -16%
CCSc1nc2ccccc2c(OCc2ccc(Cl)cc2)c1C(=O)OC | 5%
CCc1ccccc1NC(=O)[C@@H](c1ccccc1)N1Cc2ccccc2C1=O | 7%
COc1cccc(CNC(=O)CSc2nnc(C)c3c(C)n(-c4ccccc4)nc23)c1 | -2%
CCCN(CCC)CCNC(=O)CS(=O)Cc1nc(-c2ccc(OC)c(OC)c2)oc1C (stereo not drawn) | -1%
COc1ccc2c(C)c(CC(=O)NCCc3ccc(Cl)cc3)c(=O)oc2c1C | -4%
COC(=O)c1cc2sccc2n1CC(=O)Nc1ccc(C)cc1C | 0%
CC(C)N(Cc1ccc(F)cc1)C(=O)c1cc2ccccc2oc1=O | -40%
Cc1cc(C)cc(NC(=O)COc2cccc3c(=O)n(C)ccc23)c1 | 5%
COc1ccccc1-c1nnc(C2CCN(C(=O)c3ccc(Cl)cc3)CC2)o1 | -3%
CCn1c(C)c(C)c2cc(C(=O)NCCc3cc(OC)c(OC)c(OC)c3)ccc21 | 14%
CCc1ccc(CNC(=O)C2CCN(C(=O)c3ccc(-n4ccc5ccccc54)s3)CC2)cc1 | -1%
COc1cc(OC)c(NC(=O)NCc2ccc3c(c2)CCN3C(=O)c2ccccc2)cc1Cl | 22%
CCc1ccc(N2C(=O)CSC23C(=O)N(Cc2cccc(F)c2)c2ccccc23)cc1 (stereo not drawn) | 11%
CC(NC(=O)CN1C(=O)COc2ccc(Cl)cc21)c1ccccc1 (stereo not drawn) | -14%
COc1ccc(N2CC(NC(=O)/C=C\c3ccccc3)CC2=O)cc1 (stereo not drawn) | 0%
COc1ccc(NC(=O)CSc2nnc3c(C)cc4ccccc4n23)cc1 | -9%

Compound activity from PubChem BioAssay.
